# VACV Venus inh – qHTS for Stage-Specific Inhibitors of Vaccinia Orthopoxvirus: Venus Reporter Primary qHTS | Vaccinia virus Venus reporter expression, fluorescence | Potency, µM (titrated, usually from 36.5 µM), for inactives: top-dose activity change, negative = inhibition, most hits filed as inhibitors | actives 0.46% (n = 330,000); active means well fitted inhibition curve with a large enough effect; inconclusive means small, poorly fitted or top-dose-only effect; inactive means no such curve, though single readings can be large or run the other way; tested in A549 cells; note: nearly all actives have a fitted effect of over 30% in size; inactives centre near -10
# VACV mCherry inh – qHTS for Stage-Specific Inhibitors of Vaccinia Orthopoxvirus: mCherry Reporter Primary qHTS; Potency, µM (series often up to 36.5 µM), for the others: top-dose activity change, negative = inhibition, usual class: inhibitors; Vaccinia virus mCherry reporter infection, fluorescence; about a quarter of the inactives have no number; actives 0.63% (n = 310,000); active = well fitted inhibition curve with a large enough effect; inconclusive = small, poorly fitted or top-dose-only effect; inactive = no such curve, though single readings can be large or run the other way; tested in A549 cells; note: nearly all actives have a fitted effect of over 35% in size; inactives centre near -10
# Numbers without * were called inactive; i = inactive; ? = inconclusive; . = not tested or not shown; [ ] = dose if it differs, or a comment. % is set by controls: 0 for no effect and ±100 for the full control effect; potency is the fitted concentration of half-maximal effect.
SMILES,VACV Venus inh,VACV mCherry inh
COCCNC(=O)C(=O)NCC1OCCN1S(=O)(=O)c1cccs1 (stereo not drawn),-13%,-21%
CSc1ccccc1NC(=O)Cc1ccc(Br)cc1,-7%,-14%
O=c1[nH]c2cccc(Cl)c2c2ccccc12,-11%,i
COc1ccc(NC(=O)CN2C(=O)NC3(CCCC3)C2=O)cc1,6%,-9%
Cc1cc(NS(=O)(=O)c2ccc(NC(=O)COc3ccc(Cl)cc3)cc2)no1,6%,-12%
Cc1cc(N/N=C/c2ccc(F)cc2)nc(-n2nc(C)cc2C)n1,?,?
O=C(NC(=S)NCc1ccccc1)c1ccc2c(c1)OCO2,-5%,-14%
CCCc1nn2c(=O)cc(COc3cccc(NC(=O)c4ccco4)c3)nc2s1,2%[7.34 µM],0%[7.34 µM]
O=C(NCc1ccccc1)c1nc(S(=O)(=O)Cc2ccc(F)cc2)ncc1Cl,-14%[7.34 µM],-12%[7.34 µM]
COc1ccccc1CNC(=O)CSc1nc2ccccc2c(=O)n1CCCN1CCOCC1,-25%,-18%
CCn1cc(S(=O)(=O)CC(=O)Nc2ccc3c(c2)OCCO3)c2ccccc21,-3%,-9%
COc1ccc(-c2cc(=O)oc3cc(O)ccc23)cc1,-19%,-8%
COc1cccc(C2CC(c3cccs3)=NN2C(=O)CSc2nc3ccccc3s2)c1OC (stereo not drawn),-7%,-6%
CCCCNC(=S)N/N=C/c1ccccc1F,-23%,i
COC(C)(C)[C@]12CC(O)(C(C)C)ON1[C@H]1CCCCC1N2O (stereo partly drawn),-13%,.
CC1CCN(C(=O)Cn2ncc3c([nH]c4ccccc43)c2=O)CC1,-8%,i
O=C(COc1ccccc1)NCCc1csc(-c2cccc(F)c2)n1,2%,-3%
CCCCC(=O)Oc1cc(C)[nH]c(=O)c1[N+](=O)[O-],-9%,i
O=C(CSc1nnc(-c2ccc(OC(F)F)cc2)o1)NC(=O)NCc1ccco1,-19%,-20%
COc1ccccc1C(=O)CN1C(=O)NC2(CCc3ccccc32)C1=O (stereo not drawn),-14%,-1%
CCN(C(=O)Cn1nnc2sc(-c3ccccc3)cc2c1=O)c1cccc(C)c1,-13%,-16%
O=C(Nc1cccc([N+](=O)[O-])c1)Nc1ccc2c(c1)OCCO2,-26%,-24%
CCOC(=O)c1sc(NC(=O)Nc2ccc(Cl)cc2)cc1C,?,?
COc1cc(F)ccc1CN1CCC(C(=O)Nc2ccc(Oc3ccccc3)nc2)CC1,-22%,i
NC(=O)c1cccc(Nc2nc(C(N)Cc3ccc(C(F)(F)F)cc3)cs2)n1 (stereo not drawn),?,?
CN(CC(=O)Nc1cccc(F)c1)C(=O)Cn1cnc2c1c(=O)n(C)c(=O)n2C,0%,-13%
CC(C)(C)C(=O)Nc1ccccc1N1CCN(C(=O)c2ccc(Cl)cc2)CC1,-9%,-15%
O=C(NN=Cc1ccc(N(CCCl)CCCl)cc1)C(=O)c1c[nH]c2ccccc12,-13%,-22%
CC1CC(C)CN(CCCNC(=O)CN2C(=O)CSc3ccc(S(=O)(=O)N4CCCCC4)cc32)C1 (stereo not drawn),-20%,-23%
Cc1ccc(CNC(=O)Nc2ccccc2)cc1,-10%,-9%
Cc1ccc(CSc2nnc(SCC(=O)N/N=C/C=C/c3ccccc3[N+](=O)[O-])s2)cc1,-6%,-14%
O=C(c1ccccn1)N1CCN(S(=O)(=O)c2cccc(Br)c2)CC1,-5%,-20%
Cc1ccc(-c2nnc(Nc3ccc4c(c3)OCO4)c3ccccc23)cc1S(=O)(=O)NCCO,?,?
CN(C)S(=O)(=O)n1cc(/C=C(\NC(=O)c2ccccc2)C(=O)N2CCCCC2)c2ccccc21,-19%,?
CON=C1C=C(C)C(=O)C(C)=C1C,-5%,-14%
Cc1ccccc1C(=O)n1nc(-c2ccco2)nc1NCc1cccs1,-11%,-12%
CC(C)[C@H](Nc1nc(-c2ccccc2)nc2c1oc1ccccc12)C(=O)O,-17%,.
COc1ccc(OC)c(CCNc2ncnc3onc(-c4ccc(F)cc4)c23)c1,-15%,-9%
Cc1cc(C)n(-c2nc(NCCN(C)C)c3c4c(sc3n2)CCCC4)n1,-14%,?
O=C(NCCC(=O)N1CCN(S(=O)(=O)c2ccccc2F)CC1)Nc1ccccc1,-7%,i
CCc1ccc(S(=O)(=O)NCc2csc(-c3cccnc3)n2)s1,-17%,-11%
CN(C)c1nc2c(cnn2C)c(=O)[nH]1,-6%,-9%
COc1cccc(C(=O)Nc2ccccc2OCc2cc(=O)n3cc(C)ccc3n2)c1,-16%,-16%
COc1cccc(OC)c1C(=O)Nc1ccc(S(=O)(=O)Nc2nccc(C)n2)cc1,4%,-11%
CCCCNC(=O)C1C(c2ccc(C(F)(F)F)cc2)=Nc2ccccc2N1C(=O)c1ccc2nc(C)[nH]c2c1 (stereo not drawn),?,?
COC(=O)c1c(NC(=O)CCN2CCOCC2)sc2c1CCCC2,-18%,i
CCOc1ccc2nc(NC(=O)c3nc(SC(C)C)ncc3Cl)sc2c1,-14%,-13%
O=C(c1sccc1Cl)N1CCN(Cc2ccc3c(c2)OCO3)CC1,-12%,i
COc1ccc(-c2cc(=O)c3cc(OC)ccc3[nH]2)cc1,-9%,i
CCCn1nc(NC(=O)c2cccs2)c2cc3cccc(C)c3nc21,1%[7.34 µM],-9%[7.34 µM]
COc1ccc(S(=O)(=O)N2CCN(C(=O)C3CC3)CC2)cc1,0%,-7%
Cc1cc2nc(-c3ccc(SCC(=O)N4CCc5ccccc54)nc3)[nH]c2cc1C,-5%,i
CCOc1ccc(-n2c(=O)c3c4c(sc3n(CC(=O)NCc3ccco3)c2=O)CCC4)cc1,-19%,.
O=C(Cc1cccc2ccccc12)OCn1nnc2ccccc2c1=O,-2%,-3%
COc1ccc(C(=O)CN2C(=O)N(c3ccc(C(C)=O)cc3)S(=O)(=O)c3ccccc32)cc1,-10%,-10%
CN(CCNC(=O)c1ccc(CS(=O)(=O)c2c(Cl)cccc2Cl)o1)CCc1ccccc1,-12%,-2%
O=C(Cn1c(-c2cccs2)cc2cc(F)ccc21)NCCCN1CCN(c2ccccc2F)CC1,-19%,-22%
Cc1ccc(S(=O)(=O)N2CCCCC2)cc1NC(=O)CCCOc1ccccc1,0%,-22%
CC1(C2CCC3C4CCC5CC6(CCC5(C)C4C(=O)CC32C)OCCO6)OCCO1 (stereo not drawn),-24%,i
CC(C)CCNC(=O)C1CCC(CNS(=O)(=O)c2cccc3nsnc23)CC1 (stereo not drawn),-4%,-15%

# Taken from above.
# COc1cccc(OC)c1C(=O)Nc1ccc(S(=O)(=O)Nc2nccc(C)n2)cc1 | VACV mCherry inh: -11%
# COc1ccc(-c2cc(=O)c3cc(OC)ccc3[nH]2)cc1 | VACV Venus inh: -9%

# (more compounds)
SMILES,VACV Venus inh,VACV mCherry inh
COc1ccc(N2C(=O)CSC23C(=O)N(Cc2cccc(C(F)(F)F)c2)c2ccccc23)cc1 (stereo not drawn),-13%,0%
C=CCN1C(=O)C2(C(C(=O)OCC)=C(N)Oc3c2c(=O)oc2ccccc32)c2ccccc21 (stereo not drawn),3%,-8%
CN1C(=O)/C(=C\c2ccc(OC(=O)c3ccco3)cc2)SC1=S,0%,1%
O=C(Nc1ccccc1Cl)c1cc(C2CCCCN2C(=O)OCCF)on1 (stereo not drawn),-4%,46%[activator]
COC(=O)c1cc(NC(=O)CSc2nnc(CN3CCOCC3)n2C)ccc1Cl,-22%,-29%
COC(=O)c1cc2ccsc2n1Cc1cc(=O)n2ccccc2n1,-10%,?
CC(C)Sc1nc2c(c(=O)[nH]1)C(c1cccs1)C1=C(CC(C)(C)CC1=O)N2 (stereo not drawn),-10%,i
COc1ccc(OCCCC(=O)N(C)CC(=O)Nc2c(C)cccc2C)cc1,-11%,-6%
CCOC(=O)c1c(C)oc2nc(C)nc(NCCCN3CCN(c4ccccc4)CC3)c12,-17%,i
Fc1ccc2nc(Nc3nc4c(s3)CCCC4)sc2c1,5%,-21%
CCn1c(-c2ccccc2O)n[nH]c1=S,-8%,-15%
COc1ccc(S(=O)(=O)NC(CC(=O)NCCc2ccc(OC)c(OC)c2)c2ccco2)cc1 (stereo not drawn),-24%,.
CCOC(=O)c1ccc(NC(=O)CSc2nc(SC)ns2)cc1,?,.
CCOC(=O)c1c(NC(=O)c2cc(-c3cccc(Cl)c3)on2)sc(C(C)=O)c1C,-10%,-11%
COc1cc(OC)c(NC(=O)CCn2cccn2)cc1Cl,-8%,-11%
COc1ccc(Br)cc1C(=O)Nc1cccc(C)c1,-8%,-13%
CC(=O)N1CN(Cc2ccccn2)Cc2c1sc1c2CCCC1,-2%,.
CCN(CC)C(CNC(=O)CSc1nnnn1-c1c(C)cccc1C)c1ccco1 (stereo not drawn),-4%,-9%
Cc1ccc(NC(=O)CCC(=O)c2cccs2)cc1F,-18%,4%
O=[N+]([O-])c1ccccc1OCc1nc(-c2cccs2)no1,10%,5%
Cc1ccc(S(=O)(=O)N(CCC#N)C2CCCCC2)c2nsnc12,-9%,-12%
CNC(=S)N1CCN(C(=O)c2ccco2)CC1,0%,-8%
CCOc1ccccc1C=NNC(=O)C(=O)NN=Cc1ccccc1OCC,-11%,i
COc1ccc(CNC(=O)CN(C(=O)c2csnn2)c2cnc3ccccc3c2)cc1,-8%,-10%
CN=C1c2c(-c3ccccc3)c3cc(OC)ccc3n2CCN1C,-20%,-4%
CS(=O)(=O)c1ccccc1-c1nnc(NC(=O)c2ccco2)o1,-6%,-11%
COc1cccc(NC(=O)CSc2nc(=O)n(CCN(C)C)c3c2CCCC3)c1,-17%,-3%
COc1cccc(NC(=O)c2ccc(Cn3cc([N+](=O)[O-])cn3)o2)c1,-23%,-5%
O=C(NCc1ccco1)C(=O)NCC1OCCCN1S(=O)(=O)c1ccccc1 (stereo not drawn),-5%,i
Cc1ccc(C)c(N2CCN(C(=O)Nc3cn(CC(C)C)c(=O)c4ccccc34)CC2)c1,-21%,-25%
Fc1ccc(-c2nc3ccccn3c2NCc2ccc3c(c2)OCO3)cc1,-10%,-19%
CCOC(=O)Nc1ccc2c(COC(=O)c3ccccc3O)cc(=O)oc2c1,-13%,-19%
C/C(Cl)=C\Cn1c(O)c(N=O)c2ccccc21,?,?
COc1ccc2nc(NC(=O)c3cccc(S(=O)(=O)N4CCOCC4)c3)sc2c1,-18%,-25%
Cc1cc(C)cc(-n2ccn(CC(=O)c3ccc(F)cc3)c(=O)c2=O)c1,-10%,-11%
O=C1/C(=C/c2ccco2)SC(=S)N1C1CCS(=O)(=O)C1 (stereo not drawn),-9%,-3%
CN1C(=O)C(=O)/C(=C(/O)c2ccc(Br)cc2)C1c1ccc(Cl)cc1 (stereo not drawn),-27%,i
Cc1c(C(=O)NCc2ccccn2)oc2c(Cl)cccc12,-21%,-25%
CCn1c(CNC(=O)Cc2ccc(OC)cc2)n[nH]c1=S,-6%,-21%
Cc1cc(=O)oc2cc(OC(C)C(=O)N3CCOCC3)c(Cl)cc12 (stereo not drawn),-19%,i
COc1ccc(-n2c(C)cc(/C=C3/SC(=O)N(CC(=O)N4CCOCC4)C3=O)c2C)cc1,-8%,-17%
CC(C)(C)C(=O)NCCc1nc(-c2ccccc2)no1,-10%,-10%
COc1ccc(C(=O)N(C)C(C)c2ccon2)cc1OC1CCN(C(C)C)CC1 (stereo not drawn),-9%,-13%
COc1ccc(C2/C=C\CN(CC(C)C)CC(=O)N2Cc2ccc(F)cc2)cc1 (stereo not drawn),-3%,-4%
Cc1cc(O)ccc1-c1cc(C(=O)NCc2ccc(F)cc2)[nH]n1,4%,13%
CCOC(=O)N1CCN(S(=O)(=O)c2ccc(C(=O)Nc3nnc(C4CC4)o3)cc2)CC1,1%,-15%
Cc1nnc(Sc2cc(C(=O)NC3CC3)c3ccccc3n2)s1,-9%,-5%
Cc1ccc(CCNC(=O)C2CCN(c3nnc(-n4cccc4CNc4ccc(C)cc4)s3)CC2)cc1,?,-19%
Cc1n[nH]c(=S)n1/N=C/c1cccc(OCc2ccccc2)c1,-18%,-5%
CC12CN3CCN(CC(C3)C1(O)CN1CCCCC1)C2 (stereo not drawn),-9%,.
Cc1ccc(C2CC(=O)Nc3cc4c(cc32)OCCO4)cc1Br (stereo not drawn),-25%,?
COc1ccc(S(=O)(=O)NC(C)c2ccc3c(c2)OCCO3)cc1 (stereo not drawn),-6%,i

# Molecules shown so far that have bromine, in the order listed:
SMILES,VACV Venus inh,VACV mCherry inh
CSc1ccccc1NC(=O)Cc1ccc(Br)cc1,-7%,-14%
O=C(c1ccccn1)N1CCN(S(=O)(=O)c2cccc(Br)c2)CC1,-5%,-20%
COc1ccc(Br)cc1C(=O)Nc1cccc(C)c1,-8%,-13%
CN1C(=O)C(=O)/C(=C(/O)c2ccc(Br)cc2)C1c1ccc(Cl)cc1 (stereo not drawn),-27%,i
Cc1ccc(C2CC(=O)Nc3cc4c(cc32)OCCO4)cc1Br (stereo not drawn),-25%,?

# Reprinted at random: 3 records from the list.
SMILES,VACV Venus inh,VACV mCherry inh
CCOC(=O)N1CCN(S(=O)(=O)c2ccc(C(=O)Nc3nnc(C4CC4)o3)cc2)CC1,1%,-15%
Cc1nnc(Sc2cc(C(=O)NC3CC3)c3ccccc3n2)s1,-9%,-5%
Cc1n[nH]c(=S)n1/N=C/c1cccc(OCc2ccccc2)c1,-18%,-5%

# Nothing new here: an excerpt of the list.
SMILES,VACV Venus inh,VACV mCherry inh
CC12CN3CCN(CC(C3)C1(O)CN1CCCCC1)C2 (stereo not drawn),-9%,.
Cc1ccc(C2CC(=O)Nc3cc4c(cc32)OCCO4)cc1Br (stereo not drawn),-25%,?
COc1ccc(S(=O)(=O)NC(C)c2ccc3c(c2)OCCO3)cc1 (stereo not drawn),-6%,i

# Screens deposited in PubChem BioAssay by National Center for Advancing Translational Sciences (NCATS).
